KCNQ2 enhance: potentiators of rat KCNQ2 potassium channel. O88943. CHO-K1 KCNQ2, FluxOR thallium flux fluorescence; active compounds read high. B-score at 10 µM. 310,000 tested, 0.54% active. AID 2239;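 active means fluorescence ratio B-score at least 3 SD of library B-scores, with initial fluorescence B-score within 3 SD, cut at about 5.3 in these data; same plate scores as AID 2156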;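 further: B-score of peak minus minimum over baseline fluorescence ratio after K+ and Tl+ stimulus; positive B-score means potentiation of KCNQ2 with more thallium influx and brighter signal; only the inactives scoring about 0 or higher are listed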
Target sequence (O88943 whole entry, looked up): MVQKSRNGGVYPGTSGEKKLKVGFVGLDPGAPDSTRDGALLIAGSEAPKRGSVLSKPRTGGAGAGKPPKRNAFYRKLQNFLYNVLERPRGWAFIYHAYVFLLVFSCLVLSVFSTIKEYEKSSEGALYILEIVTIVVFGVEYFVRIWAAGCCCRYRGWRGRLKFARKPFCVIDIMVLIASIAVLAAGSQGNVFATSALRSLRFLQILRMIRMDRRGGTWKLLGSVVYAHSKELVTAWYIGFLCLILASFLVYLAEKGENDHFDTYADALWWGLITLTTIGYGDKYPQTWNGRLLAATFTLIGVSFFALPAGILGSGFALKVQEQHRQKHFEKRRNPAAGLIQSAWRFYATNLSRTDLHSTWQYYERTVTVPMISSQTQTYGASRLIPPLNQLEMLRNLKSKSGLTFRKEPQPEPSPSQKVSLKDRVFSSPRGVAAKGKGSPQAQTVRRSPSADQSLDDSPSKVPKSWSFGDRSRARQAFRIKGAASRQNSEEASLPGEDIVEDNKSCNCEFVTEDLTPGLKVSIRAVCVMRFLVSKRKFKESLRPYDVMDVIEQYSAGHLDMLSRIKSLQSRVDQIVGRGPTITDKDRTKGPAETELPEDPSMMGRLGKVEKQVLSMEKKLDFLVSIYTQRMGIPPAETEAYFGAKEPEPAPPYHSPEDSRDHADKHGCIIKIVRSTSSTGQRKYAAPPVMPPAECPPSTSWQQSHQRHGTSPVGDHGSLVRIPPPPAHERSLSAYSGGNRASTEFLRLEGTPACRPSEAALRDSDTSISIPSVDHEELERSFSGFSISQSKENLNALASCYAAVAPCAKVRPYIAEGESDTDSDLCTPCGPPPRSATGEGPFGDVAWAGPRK
KCNQ2 enhance baseline: further read-out of KCNQ2 enhance, marked with its call; B-score; compound at 10 µM; measured here: initial fluorescence intensity artifact check;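 brightness before thallium and not channel activity; 0 = typical well and far values either way flag optical interference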
The depositor's hits bear a star; . = not tested or not shown.

SMILES	KCNQ2 enhance	KCNQ2 enhance baseline
CC(=O)COC(=O)C1CC(=O)N(c2ccc(C)c(C)c2)C1 (stereo not drawn)	0.66	-3.08
Cc1cc(=O)n2c3ccccc3n(CC(O)CN3CCN(CCO)CC3)c2c1C#N (stereo not drawn)	0.01	0.84
O=C(c1cccnc1)N1CCN(c2ccc3ccccc3n2)CC1	1.05	0.08
CC(C)c1ccc(/C=N/NC(=O)c2nnn(-c3nonc3N)c2CN2CCOCC2)cc1	0.37	1.77
COCCNC(=O)c1c(NC(=O)c2nc(SC)ncc2Cl)sc2c1CCCC2	0.95	-0.27
Cc1ccc(OCc2nnc(SC(C)C(=O)O)n2-c2ccccc2)cc1 (stereo not drawn)	0.48	-1.62
Cc1cc(C)n2nc(SCC(=O)N(C(C)C)C(C)C)nc2n1	0.37	-0.42
COC(=O)C1=C(C(=O)OC)[C@@H]2N(C)c3ccc(OC)cc3[C@@]23C[C@@H](C(=O)OC)N(C(=O)NCCBr)C3=N1	1.31	0.97
CC(C)Cn1c(O)c2ccc(C(=O)N=NC(=O)c3cccnc3)cc2c1O	0.5	-1.28
O=C(/C=C/c1cccc([N+](=O)[O-])c1)NCc1ccc2c(c1)OCO2	0.28	-1.3
O=C(CSc1ccc2c(c1)OCCO2)NC(=O)NC1CCCC1	1.93	-0.31
CC(NC(=O)c1ccco1)C(=O)N1CCc2ccccc2C1 (stereo not drawn)	1.73	1.93
COc1ccc(S(=O)(=O)N2CCN(c3ccc4nnc(-c5ccccc5)n4n3)CC2)cc1	0.14	2.75
O=C(NC(=S)Nc1ccc(NC(=O)c2cccs2)cc1)c1cc2ccccc2o1	0.34	2.35
COc1ccc(OC)c(/C=C2\SC(=S)N(NS(=O)(=O)c3ccccc3)C2=O)c1	4.34	-1
CCOc1ccc(CCNC(=O)c2ccc(Cl)c(S(=O)(=O)N3CCOCC3)c2)cc1OCC	0.58	1.11
COc1ccccc1CNC(=O)COC(=O)c1nccnc1N	0.23	-0.52
Cc1ccccc1N1CCN(C(=O)c2ccccc2NC(=O)c2ccccc2C(=O)O)CC1	0.27	1.21
O=C(OCC(=O)N1CCCC1)c1cncc(Br)c1	1.1	0.03
COc1ccc(C(=O)Nc2ccc3oc(-c4cccnc4)nc3c2)cc1OC	2.47	-1.4
O=C(CSc1nnc(-c2ccccc2)o1)N1CCCC1	0.42	-0.51
CCc1nc(SCC(=O)Nc2ccnc3ccccc23)n[nH]1	1.52	-0.39
CCN1C(=O)c2ccccc2Sc2ccc(C(=O)O)cc21	1.05	-0.91
CC(C)(C)c1nc(C(C)(C)C)c(Br)c(=O)[nH]1	0.01	1.12
Cc1cc(C)nc(NS(=O)(=O)c2ccc(N/C=C3\CCCC3=O)cc2)n1	0.81	-1.02
CCCc1[nH]nc2c1C(c1ccccc1OCC)C(C#N)=C(N)O2 (stereo not drawn)	0.46	0.23
CCOC(=O)c1nn(-c2ccc(Cl)cc2)c2nc(CC)c(C#N)c(=O)n12	0.29	2.81
CCOC(=O)c1c(C)c(C(=O)Nc2ccc3c(c2)OCCO3)c(C)n1CC	0.24	-0.33
COc1cccc(Nc2nc(C)cc(C)c2C(N)=O)c1	1.02	-0.29
CC(C)[C@@H](CO)NC(=O)c1ccc2c3n(nc2c1)-c1ccc(Cl)cc1CO3	1.24	0.46
CCCn1c(=O)c(C(=O)N/N=C/c2ccc(F)cc2)c(O)c2ccccc21	0.01	2.02
CC(C)(C)C1CCC(C(=O)NCCc2ccc(S(N)(=O)=O)cc2)CC1 (stereo not drawn)	0.95	-0.03
CCN1C(=O)N[C@@H](c2cccc(F)c2)C(C(=O)OC)=C1C	0.13	0.53
CC(C)C1NC(C(=O)O)Cc2c1[nH]c1ccccc21 (stereo not drawn)	1.35	0
O=C(NCCCN1CCOCC1)C1CC(=O)N(C2CCCCC2)C1 (stereo not drawn)	1.57	0.04
COc1cccc(/C=C2/SC(=S)N(CCCC(=O)Nc3ccc(O)cc3)C2=O)c1	1.27	-1.76
COc1ccc(OC)c(NC(=O)c2ccccc2NS(=O)(=O)c2cccc3cccnc23)c1	1.6	-0.61
COc1ccc2nc(Nc3ccccc3)sc2c1	1.32	0
CCOc1ccc(CC(C(=O)NN)C(=O)NN)cc1CN(C)C	0.01	-1.45
CCOCCCNC(=O)C(NC(=O)c1ccc(NC(C)=O)cc1)c1ccccc1 (stereo not drawn)	3.13	0

Some of the entries above, reformatted:
SMILES: CCOc1ccc(CC(C(=O)NN)C(=O)NN)cc1CN(C)C
  KCNQ2 enhance: 0.01; KCNQ2 enhance baseline: -1.45
SMILES: CCOCCCNC(=O)C(NC(=O)c1ccc(NC(C)=O)cc1)c1ccccc1 (stereo not drawn)
  KCNQ2 enhance: 3.13; KCNQ2 enhance baseline: 0

(more compounds)
SMILES	KCNQ2 enhance	KCNQ2 enhance baseline
CCN(CC)C(=S)SCC(=O)NC12CC3CC(CC(C3)C1)C2	8.78*	-0.88*
Cc1cc(=O)[nH]c(SCC(=O)Nc2ccc(F)cc2)c1C#N	0.7	-0.52
COc1cc(C=O)ccc1OCC(=O)NC(C)(C)C	1.95	-0.75
O=C(COc1ccc2ccccc2c1Br)Nc1cccnc1	0.01	-1.19
COc1ccc(-c2nnc(SCC(=O)N3CCCCC3)o2)cc1	0.77	0.48
CC1CCN(C(=O)CSc2nc(N)c3c4c(sc3n2)CN(C)CC4)CC1	0.88	1.36
O=C(Nc1cc(S(=O)(=O)Nc2ccccc2Cl)ccc1O)c1cc2c(s1)CCCC2	0.57	-0.76
CC(=O)c1cccc(NS(=O)(=O)N2CCOCC2)c1	0.39	1.1
CC(=O)O[C@H]1c2ccccc2-c2ccccc2[C@@H]1OC(C)=O	0.03	3.25
O=C(O)c1cccc(NC(=S)NC(=O)c2ccc(-c3ccc(Cl)cc3)o2)c1	1.88	0.28
COc1ccc(C(CNC(=O)COc2cc(C)ccc2Cl)N2CCCCC2)cc1 (stereo not drawn)	0.12	1.28
COc1ccc2c(c1)cc1n2CCN=C1N	0.77	-0.17
O=c1onc(-c2ccccc2Cl)n1-c1ccccc1Cl	1.47	0.24
COC(=O)CCNC(=O)c1ccc2nc(Cc3ccc(OC)cc3)oc2c1	1.62	-0.37
CC(C)c1ccc(NC(=O)Cc2c(C(=O)O)n(C)c3ccccc23)cc1	1.74	0.07
O=C(N/N=C/c1ccc[nH]1)c1cccnc1	0.39	-0.02
C1CCN(c2nc3nonc3nc2NCC2CCOCC2)CC1	0.77	0.51
CCn1c(=S)sc2c(=O)n(CC(=O)Nc3cc(OC)ccc3OC)c(C)nc21	0.23	0.03
CCOC(=O)c1c(N2CCN(c3ccccc3)CC2)cc(C)nc1C	1.03	-0.66
CS(=O)(=O)N1CCN(c2ccc([N+](=O)[O-])c(SCc3ccco3)c2)CC1	0.79	-1.51
COc1ccc(-c2nc(NC(=O)c3ccc(OCC(=O)N4CCOCC4)c(OC)c3)sc2C)cc1	0.59	-1.42
CCN(CC)CCCn1c(=S)[nH]c2ccccc2c1=O	0.96	0
c1ccc(-c2nc3ccccc3s2)nc1	0.2	.
Cc1ccc(NC(=O)c2c(C)nn(-c3ccccc3)c2Cl)c(C)c1	3.06	-0.85
COCCCNC(=O)Cn1cc(/C=C(\C#N)C(=O)NC2CCCC2)c2ccccc21	1.02	-0.7
O=C(CCc1nnc(-c2ccc3c(c2)OCO3)o1)N(Cc1ccncc1)CC1CCCO1 (stereo not drawn)	0.13	-0.01
CCOC(=O)C1=C(COC(=O)COc2ccc(Br)cc2)NC(=O)NC1C (stereo not drawn)	1.26	1.06
CCOC(=O)C1=C(c2ccccc2)Nc2ncnn2C1c1ccc(O)cc1 (stereo not drawn)	1.12	0.05
COc1ccc(OC)c(C(=O)CC2OC(=O)c3ccccc32)c1 (stereo not drawn)	0.46	-0.75
O=C(O)/C(=C\c1ccco1)NC(=O)c1cccc2ccccc12	0.57	0.19
COc1cc(CSc2nnnn2-c2ccc(C)cc2)cc(OC)c1OC	0.86	3.19
COc1cccc(CNC(=O)CC2Sc3ccccc3NC2=O)c1 (stereo not drawn)	2.05	-0.86
Cc1c(Cl)cccc1NC(=S)NC(=O)CCN1C(=O)c2ccccc2C1=O	2.01	-0.43
O=C(CNS(=O)(=O)c1ccc(Br)s1)Nc1ccc2c(c1)OCCO2	0.71	0.04
COc1ccc(N2C(=O)CC(Cc3ccccc3OC)C2=O)cc1 (stereo not drawn)	0.91	-0.64
CC(C)CCn1c(N2CCc3ccccc3C2)nc2c1c(=O)[nH]c(=O)n2C	1.97	0.04
CC(C)Cc1nc2oc3c(NCc4cccnc4)ncnc3c2c2c1CCC2	0.8	-0.03
CC(C)C(=O)NC(=S)Nc1sc2c(c1C(N)=O)CCCC2	1.11	-1.06
COc1ccc(OCC(=O)NCCc2ccc(S(N)(=O)=O)cc2)cc1	1.18	-1.45
Cc1cc(S(=O)(=O)N2CCCc3ccccc32)ccc1-n1cnnn1	0.68	0.95
Cc1ccc(/C=N/NC(=O)C(C)NC(=O)c2ccccc2)cc1 (stereo not drawn)	0.82	0.7
COCCOCCn1c(CCCO)nc2ccccc21	2.57	0
Cc1ccc2nc(N=C(N)N)nc(C)c2c1	1.02	-2.25
CC[N+](C)(CC)CC(O)COCC1COc2ccccc2O1 (stereo not drawn)	0.23	0.43
O=C(O)C1CC(=O)N(CCc2c[nH]c3ccccc23)C1 (stereo not drawn)	0.16	-0.37
COc1ccc(S(=O)(=O)N2CCC(NC(=O)c3cccc(F)c3)CC2)cc1	0.65	0.3
COc1ccc2c(C)cc(SCC(=O)N(C)C3CCS(=O)(=O)C3)nc2c1 (stereo not drawn)	1.04	-1.54
CSc1sc(C(=O)O)c2c1C(=O)CCC2	1.05	1
O=C(c1cc(-c2ccc(O)cc2)on1)N1CCOCC1	0.31	0.59
CCOc1cc(N2CCOCC2)c(OCC)cc1NC(=O)c1ccc(NC(C)=O)cc1	3.73	-3.51
CCOC(=O)c1cc2sccc2n1CC(=O)N1CCN(C(=O)c2ccco2)CC1	0.15	-2.04
Cc1ccc(NC(=O)CN2C(=O)S/C(=C/c3ccc(-c4cc(C(=O)O)ccc4C)o3)C2=O)cc1C	0.02	1.79
COC(=O)CCC(=O)Nc1cc(OC)c(OC)cc1Cc1nccc2cc(OC)c(OC)cc12	0.79	-0.05
CC1CC(C)CN(CC(O)COCc2ccccc2F)C1 (stereo not drawn)	1.39	-0.84
O=C(CSc1nnc(C2CC2)n1Cc1ccccc1)NCc1ccccc1	0.67	0.9
CC(C)Cc1nnc(NS(C)(=O)=O)s1	0.4	1.91
O=S(=O)(NCC(c1ccco1)N1CCN(c2ccc(F)cc2)CC1)c1ccc(F)cc1 (stereo not drawn)	0.64	-0.18
O=C1COc2ccccc2N1Cc1c(F)cccc1Cl	0.13	-0.03
O=C(c1nc(-c2ccccc2)n(-c2ccccc2)n1)N1CCCCCC1	0.55	-0.98
CCOc1ccc(S(=O)(=O)N2CCC(C(=O)N3CCN(C)CC3)CC2)cc1Cl	0.01	1.01

Look-ups from the results shown.
For KCNQ2 enhance, CC(C)[C@@H](CO)NC(=O)c1ccc2c3n(nc2c1)-c1ccc(Cl)cc1CO3 has the entry 1.24
For KCNQ2 enhance baseline, CCN(CC)C(=S)SCC(=O)NC12CC3CC(CC(C3)C1)C2 has the entry -0.88*

A second format for part of the listing above:
CC(C)Cc1nnc(NS(C)(=O)=O)s1
  KCNQ2 enhance = 0.4
  KCNQ2 enhance baseline = 1.91

CCOC(=O)c1cc2sccc2n1CC(=O)N1CCN(C(=O)c2ccco2)CC1
  KCNQ2 enhance = 0.15
  KCNQ2 enhance baseline = -2.04

CC[N+](C)(CC)CC(O)COCC1COc2ccccc2O1 (stereo not drawn)
  KCNQ2 enhance = 0.23
  KCNQ2 enhance baseline = 0.43

COc1ccc2c(C)cc(SCC(=O)N(C)C3CCS(=O)(=O)C3)nc2c1 (stereo not drawn)
  KCNQ2 enhance = 1.04
  KCNQ2 enhance baseline = -1.54

Next part:
SMILES	KCNQ2 enhance	KCNQ2 enhance baseline
Cc1ccc(/C=C/C(=O)Nc2nc3ccccc3[nH]2)cc1	0.02	0
CCc1nc(OCCN(C)C)c2oc3ccccc3c2n1	0.18	0.02
Cc1ccccc1NC(=O)c1cccc(NC(=O)CCC(=O)O)c1	1.4	0.51
O=C(c1cc2ccccc2[nH]1)N1CCOCC1	0.51	-0.84
O=C(CNC(=S)NC(=O)c1ccc(Br)o1)c1ccccc1	2.38	0.55
O=C(N/N=C/c1cccc([N+](=O)[O-])c1)c1cc(-c2ccc3c4c(cccc24)CC3)n[nH]1	0.47	-0.72
O=C(CNc1ccc(F)cc1)N/N=C/C1CC=CCC1 (stereo not drawn)	1.12	0.12
CC(C)Cc1c(O)nc(SCCN2CCOCC2)[nH]c1=O	0.2	0.99
O=C(NCCO)c1cc2c([nH]c3ccccc32)c(-c2ccc(F)cc2)n1	0.94	0.71
CCOC(=O)c1ccc(N2C(=O)CC(N3CCC(Nc4ccc(F)cc4)CC3)C2=O)cc1 (stereo not drawn)	1.05	0.35
Cc1ccc(N=Cc2sccc2C)cc1C	1.16	-1.26
CC1CC=C(c2ccccc2)C(=S)N1 (stereo not drawn)	0.07	2.07
O=C(NC1CCN(S(=O)(=O)c2ccccc2)CC1)c1cccc(F)c1	0.02	0.52
CC(CC(=O)NNC(=O)c1cccc(Cl)c1)c1ccccc1 (stereo not drawn)	1.41	0.67
Nc1ccccc1C(=O)NCc1ccc(Cl)cc1	0.08	-1.16
Cc1ccccc1NC(=O)CC(O)(C(F)(F)F)C(F)(F)F	0.22	-0.93
O=C(CNC(=O)c1ccc(S(=O)(=O)N2CCCC2)cc1)N/N=C/c1ccco1	0.04	-0.91
COc1ccc(C(CNC(=O)CCNC(=O)c2ccc(Br)cc2)N2CCOCC2)cc1 (stereo not drawn)	0.51	1.29
N#Cc1ccc(C(=O)CSc2nnc(-c3ccc(C(F)(F)F)cn3)s2)cc1	0.02	-0.32

Assay outcomes deposited in PubChem by Johns Hopkins Ion Channel Center.

The list is partial, so the mix of outcomes need not match the whole.
